Vaccinia stage – blocks a specific stage of Vaccinia orthopoxvirus infection. Vaccinia-infected cells, mCherry/Venus stage reporter fluorescence; hits give low values; some inactives read as strong as hits. activity change (mCherry), % (concentration not given with the values). actives 0.01% (n = 89,000);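 active means mCherry past -33% and 40 or more points under the early reporter, replicates agreeing; inconclusive means past -33% without that gap or agreement; tested in A549 cells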;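 further: scaled between vehicle wells and reference inhibitor wells; 23 nL library stock went into each well; one replicate is shown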
Vaccinia stage Venus – also measured in Vaccinia stage; calls as there; activity change (Venus), %; measured here: Venus reporter, other viral stage;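 negative = less Venus signal; first of two replicates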
* marks the source's active call; other numbers are inactive results; ? = inconclusive; / = not tested or not shown; & = joins results of further samples. Not all compounds are listed, so the mix of outcomes need not match the whole.

molecule	Vaccinia stage	Vaccinia stage Venus
CCNC(=O)C[C@@H]1CC[C@@H]2[C@H](COc3ccc(NC(=O)c4ccccc4)cc3C(=O)N2C)O1	13	7
COc1cccc(S(=O)(=O)Nc2ccc3c(c2)[C@H]2C[C@H](CC(=O)NC4CCCCC4)O[C@H](CO)[C@H]2O3)c1	-10	3
C[C@H]1CN([C@@H](C)CO)C(=O)c2cccc(NC(=O)Nc3ccccc3)c2O[C@H]1CN(C)S(=O)(=O)c1cn(C)cn1	5	1
CO[C@H]1CN(C)C(=O)c2cc(NC(=O)NC(C)C)ccc2OC[C@@H](C)N(C(=O)CN(C)C)C[C@H]1C	3	-5
C[C@H](CO)N1C[C@H](C)[C@H](CN(C)Cc2ccccc2)OCCCC[C@H](C)Oc2ccc(NC(=O)c3ccncc3)cc2C1=O	-25	-19
O=C(c1cccnc1)N1CCCCN2[C@H](C1)[C@H](c1ccc(C#Cc3cccnc3)cc1)[C@@H]2CO	-9	-10
O=C(c1cccc(F)c1)N1CC[C@@H]2[C@@H](CO)Nc3ccc(C#Cc4ccccc4)cc3[C@@H]21	-27	-20
C[C@H]1CN([C@@H](C)CO)C(=O)c2cccc(NC(=O)c3ccc(-c4nccs4)cc3)c2O[C@@H]1CN(C)S(=O)(=O)c1ccc(F)cc1	-1	-2

The list continues.
molecule	Vaccinia stage	Vaccinia stage Venus
COc1ccccc1NC(=O)N1CC(=O)N2[C@H](CO)[C@H](c3ccc(C#Cc4ccc(F)cc4)cc3)[C@@H]2C1	?	/
O=C1CN(Cc2ccccc2)C[C@@H]2[C@@H](c3ccc(-c4ccccc4F)cc3)[C@@H](CO)N12	-24	-23
C[C@H]1CN([C@@H](C)CO)C(=O)Cc2cc(NS(=O)(=O)c3ccc(F)cc3)ccc2O[C@H]1CN(C)Cc1ccc2c(c1)OCO2	-8	-2
O=C(NCC(F)(F)F)[C@H]1[C@H](CO)[C@H]2Cn3c(cccc3=O)[C@H]2N1CCC(F)(F)F	10	15
C[C@H](CO)N1C[C@H](C)[C@@H](CN(C)Cc2ccc(Oc3ccccc3)cc2)Oc2c(NS(=O)(=O)c3ccc(F)cc3)cccc2C1=O	-12	4
O=C(Nc1cccc(Cl)c1)N[C@@H]1CC[C@H](CCNC(=O)C2CCC2)O[C@@H]1CO	-8	-2
Cc1noc(C)c1NC(=O)Nc1ccc2c(c1)C(=O)N([C@H](C)CO)C[C@@H](C)[C@H](CN(C)S(=O)(=O)c1ccc(F)cc1)OCCCC[C@H](C)O2	4	0
CO[C@@H]1CC[C@@H]2CCOc3c(C#N)cccc3C(=O)N(C)C[C@@H](c3ccccc3)CC(=O)N(C)C[C@@H]1O2	8	5

Following part:
molecule	Vaccinia stage	Vaccinia stage Venus
CO[C@H]1CN(C)C(=O)c2ccc(NC(=O)CC(F)(F)F)cc2OC[C@H](C)N(C(=O)C2CC2)C[C@H]1C	22	23
C/C=C/c1ccc2c(c1)O[C@H](CN(C)C(=O)C1CCOCC1)[C@@H](C)CN([C@@H](C)CO)S2(=O)=O	1	10
CCCNC(=O)N1[C@@H](CO)[C@@H](c2ccccc2)C12CN(C(=O)CC)C2	7	11
O=C(c1ccccn1)N1CC(=O)N2[C@H](CO)[C@@H](c3ccc(C#CC4CCCC4)cc3)[C@H]2C1	1	-19
O=C(Cc1ccccn1)NCC[C@@H]1CC[C@@H](NC(=O)c2ccccc2F)[C@H](CO)O1	3	5
COc1ccc(S(=O)(=O)Nc2ccc3c(c2)CC(=O)N([C@H](C)CO)C[C@H](C)[C@H](CN(C)Cc2ccccc2)O3)cc1	-17	-12
C[C@H]1CN([C@@H](C)CO)C(=O)Cc2cc(NS(=O)(=O)c3ccc(Cl)cc3)ccc2O[C@@H]1CN(C)S(=O)(=O)c1cn(C)cn1	17	11
Cc1noc(C)c1NC(=O)N(C)C[C@H]1Oc2ccc(N(C)C)cc2CC(=O)N([C@@H](C)CO)C[C@H]1C	8	1

Additional compounds.
molecule	Vaccinia stage	Vaccinia stage Venus
Cc1noc(C)c1NC(=O)Nc1cccc2c1O[C@@H](CN(C)S(=O)(=O)c1cn(C)cn1)[C@@H](C)CN([C@H](C)CO)C2=O	3	2
Cc1ccc(S(=O)(=O)Nc2ccc3c(c2)C(=O)N([C@H](C)CO)C[C@H](C)[C@H](CN(C)C(=O)Nc2ccc4c(c2)OCO4)OCCCC[C@@H](C)O3)cc1	9	5
Cc1ccc(S(=O)(=O)Nc2ccc3c(c2)C(=O)N(C)[C@@H]2CC[C@H](CC(=O)NCCc4ccncc4)O[C@@H]2CO3)cc1	10	8
O=C(C[C@H]1C[C@@H]2c3cc(NC(=O)C4CCC4)ccc3O[C@@H]2[C@@H](CO)O1)NCCN1CCCCC1	6	7
CO[C@H]1CN(C)C(=O)c2ccc(NC(=O)C3CC3)cc2OC[C@H](C)N(C)C[C@@H]1C	-4	-2
COc1ccccc1-c1ccc([C@@H]2[C@@H](C#N)N(C(=O)NC3CCCC3)[C@@H]2CO)cc1	?	/
COC(=O)N(C)C[C@H]1OCc2ccccc2-c2c(n(C)c3ccccc23)C(=O)N([C@H](C)CO)C[C@@H]1C	-1	-2
C[C@H](CO)N1C[C@H](C)[C@@H](CN(C)C(=O)c2cnccn2)Oc2cc(C#CCC3CCCC3)ccc2S1(=O)=O	8&-25	9&-19

The results go on:
Each structure is followed by: Vaccinia stage | Vaccinia stage Venus
CN(C)CC(=O)N1[C@H](CO)[C@@H](c2ccc(-c3ccccc3F)cc2)[C@@H]1C#N
 : -33 | -21
C[C@H](CO)N1C[C@H](C)[C@@H](CN(C)C(=O)Nc2ccc(C(F)(F)F)cc2)Oc2ccc(NC(=O)Nc3ccc(C(F)(F)F)cc3)cc2C1=O
 : -12 | -13
CO[C@@H]1CN(C)C(=O)c2cc(NC(=O)NC3CCCCC3)ccc2OC[C@@H](C)N(C)C[C@@H]1C
 : 11 | 6
CCCC(=O)Nc1ccc2c(c1)C(=O)N(C)[C@H]1CC[C@H](CC(=O)NCc3ccccc3Cl)O[C@H]1CO2
 : -8 | -3
CNC[C@H]1Oc2ccc(NC(=O)Cn3cnnn3)cc2C(=O)N([C@@H](C)CO)C[C@H]1C
 : 2 | -3
CCC(=O)Nc1ccc2c(c1)OC[C@@H](C)N(CC1CCOCC1)C[C@H](C)[C@@H](OC)CN(C)C2=O
 : 5 | 0
O=C(NCC[C@H]1CC[C@@H](NS(=O)(=O)c2ccccc2)[C@H](CO)O1)c1cc(Cl)cc(Cl)c1
 : -34 | -21
C[C@@H]1CN([C@@H](C)CO)C(=O)Cc2cc(NC(=O)Cn3cnnn3)ccc2O[C@@H]1CN(C)S(=O)(=O)c1cn(C)cn1
 : 9 | 3
COCC#Cc1cnc2c(c1)C(=O)N([C@H](C)CO)C[C@H](C)[C@@H](CN(C)C(=O)c1ccc3c(c1)OCO3)O2
 : 18 | 2
CCCC#Cc1ccc([C@@H]2[C@@H](CO)N3CCCCN(C(=O)Cc4ccccn4)C[C@H]23)cc1
 : 4 | 12

New compounds follow.
Each structure is followed by: Vaccinia stage | Vaccinia stage Venus
C[C@H]1CN([C@@H](C)CO)C(=O)c2cccc(NC(=O)c3ccc(-c4nccs4)cc3)c2O[C@H]1CN(C)Cc1ccncc1
 : 12 | 4
O=C(CN1CCOCC1)NCC[C@H]1CC[C@H](NS(=O)(=O)c2ccc(F)cc2)[C@@H](CO)O1
 : 3 | 7
CCS(=O)(=O)N1CCCCN2[C@H](CO)[C@H](c3ccc(-c4ccccc4F)cc3)[C@@H]2C1
 : 3 | 6
CC(=O)N(C)C[C@H]1Oc2ncc(C#CC3(O)CCCC3)cc2C(=O)N([C@H](C)CO)C[C@@H]1C
 : 10 | 4
CC(C)NC(=O)Nc1ccc2c(c1)C(=O)N([C@H](C)CO)C[C@H](C)[C@@H](CN(C)S(C)(=O)=O)OCCCC[C@H](C)O2
 : 30 | 16
COc1cccc(C#Cc2ccc([C@H]3[C@@H](CO)N4C(=O)CN(C(=O)Cc5ccccc5)C[C@@H]34)cc2)c1
 : ? | /
COCC#Cc1ccc2c(c1)O[C@H](CN(C)S(=O)(=O)c1cccc(OC)c1)[C@@H](C)CN([C@@H](C)CO)S2(=O)=O
 : -2 | -5
C[C@@H]1CCCCO[C@@H](CN(C)C(=O)C2CCCCC2)[C@@H](C)CN([C@@H](C)CO)C(=O)c2cc(NS(=O)(=O)c3ccc(F)cc3)ccc2O1
 : ? | /
CO[C@@H](CN(C)C(=O)Nc1ccc(Cl)cc1)[C@H](C)CN(Cc1ccccc1Cl)[C@H](C)CO
 : -8 | -3
O=C(Nc1ccc(Cl)cc1)N[C@H]1CC[C@@H](CCn2cc(-c3ccccc3F)nn2)O[C@H]1CO
 : -24 | -21

Six entries picked at random from those above, as already listed:
Each structure is followed by: Vaccinia stage | Vaccinia stage Venus
O=C(CN1CCOCC1)NCC[C@H]1CC[C@H](NS(=O)(=O)c2ccc(F)cc2)[C@@H](CO)O1
 : 3 | 7
CCS(=O)(=O)N1CCCCN2[C@H](CO)[C@H](c3ccc(-c4ccccc4F)cc3)[C@@H]2C1
 : 3 | 6
CO[C@@H](CN(C)C(=O)Nc1ccc(Cl)cc1)[C@H](C)CN(Cc1ccccc1Cl)[C@H](C)CO
 : -8 | -3
O=C(Nc1ccc(Cl)cc1)N[C@H]1CC[C@@H](CCn2cc(-c3ccccc3F)nn2)O[C@H]1CO
 : -24 | -21
CC(=O)N(C)C[C@H]1Oc2ncc(C#CC3(O)CCCC3)cc2C(=O)N([C@H](C)CO)C[C@@H]1C
 : 10 | 4
COc1cccc(C#Cc2ccc([C@H]3[C@@H](CO)N4C(=O)CN(C(=O)Cc5ccccc5)C[C@@H]34)cc2)c1
 : ? | /

Going on with the list:
Each structure is followed by: Vaccinia stage | Vaccinia stage Venus
COCC(=O)N1C[C@@H]2[C@H](c3ccccc31)[C@H](CO)N2Cc1cc(F)ccc1F
 : 16 | 9
CC(C)NC(=O)N(C)C[C@H]1Oc2c(cccc2N(C)C)C(=O)N([C@H](C)CO)C[C@H]1C
 : 7 | 10
CCCC(=O)N1CC2(CN(C(=O)CC3CC3)C2)c2c(n(C)c3cc(OC)ccc23)[C@@H]1CO
 : -4 | 6
O=C(CC(F)(F)F)N1C[C@H]2[C@@H](c3ccccc31)[C@@H](CO)N2C(=O)C1CCOCC1
 : 8 | 20
Cc1noc(C)c1NC(=O)N(C)C[C@H]1OCCCC[C@H](C)Oc2ccc(N(C)C)cc2C(=O)N([C@@H](C)CO)C[C@@H]1C
 : -5 | 13
COc1ccc(NC(=O)Nc2ccc3c(c2)CC(=O)N([C@H](C)CO)C[C@H](C)[C@@H](CN(C)S(=O)(=O)c2ccccc2)O3)cc1
 : 14 | 12
O=C(Nc1ccc(F)cc1)N1[C@H](CO)[C@@H]2c3ccccc3NC[C@@H]21
 : 5 | 9
COc1ccc(NC(=O)Nc2ccc3c(c2)CC(=O)N([C@H](C)CO)C[C@H](C)[C@@H](CN(C)S(=O)(=O)c2c(C)noc2C)O3)cc1
 : 21 | 28
C[C@H]1CN([C@@H](C)CO)C(=O)c2cc(C#CC(C)(C)O)cnc2O[C@H]1CN(C)Cc1ccccn1
 : 14 | 21
C[C@@H]1CN([C@H](C)CO)C(=O)c2cc(NS(=O)(=O)c3cn(C)cn3)ccc2O[C@@H]1CN(C)Cc1ccc(Cl)c(Cl)c1
 : 14 | 10

(listing goes on)
Each structure is followed by: Vaccinia stage | Vaccinia stage Venus
N#C[C@@H]1[C@@H](c2ccc(C3=CCCC3)cc2)[C@H](CO)N1C(=O)C1CCC1
 : 10 | 21
C/C=C/c1cnc2c(c1)C(=O)N([C@H](C)CO)C[C@@H](C)[C@H](CN(C)C(=O)Nc1ccc(C(F)(F)F)cc1)O2
 : 30 | 19
Cc1noc(C)c1NC(=O)N(C)C[C@@H]1OCCCC[C@H](C)Oc2ccc(NC(=O)c3ccccc3)cc2C(=O)N([C@@H](C)CO)C[C@@H]1C
 : 15 | 3
COc1ccc(S(=O)(=O)N[C@H]2CC[C@@H](CC(=O)NCc3ccccc3F)O[C@@H]2CO)cc1
 : 4 | 3
COc1cccc(-c2ccc([C@H]3[C@H](CO)N4CCCCN(C(=O)Cc5ccncc5)C[C@@H]34)cc2)c1
 : 11 | 3
CCCN1C[C@H](C)[C@@H](OC)CN(C)C(=O)c2cc(NS(=O)(=O)c3cn(C)cn3)ccc2OC[C@H]1C
 : 11 | 4
C[C@@H]1CCCCO[C@@H](CN(C)C(=O)CCC(F)(F)F)[C@@H](C)CN([C@H](C)CO)C(=O)c2cc(NC(=O)Nc3ccccc3)ccc2O1
 : 11 | 7
C/C=C/c1ccc([C@@H]2[C@H]3CN(C(=O)Nc4ccc(OC)cc4)CC(=O)N3[C@H]2CO)cc1
 : -3 | -8
Cc1noc(C)c1NC(=O)N(C)C[C@@H]1Oc2ccc(NC(=O)C3CC3)cc2CC(=O)N([C@H](C)CO)C[C@@H]1C
 : 4 | 1
O=C(O)C1=C[C@H](c2ccc(Br)cc2)C[C@H](OCc2ccc(CO)cc2)O1
 : 18 | 9

(cont.)
Each structure is followed by: Vaccinia stage | Vaccinia stage Venus
O=C1CNC[C@H]2[C@@H](c3ccc(-c4ccccc4F)cc3)[C@H](CO)N12
 : 2 | 2
C[C@H]1CN([C@@H](C)CO)C(=O)CCCn2cc(nn2)CO[C@H]1CN(C)C(=O)Nc1ccc(-c2cccs2)cc1
 : 5 | 2
O=C(Cc1ccncc1)N1CCCCN2[C@@H](CO)[C@H](c3ccc(-c4ccncc4)cc3)[C@@H]2C1
 : 49 | 20
O=C(C[C@@H]1CC[C@H](NC(=O)c2ccncc2)[C@@H](CO)O1)NCC1CC1
 : 17 | 7
COc1ccc(NC(=O)N(C)C[C@@H]2Oc3ccc(NS(=O)(=O)c4cccs4)cc3C(=O)N([C@H](C)CO)C[C@@H]2C)cc1
 : -4 | 1
COc1ccc(C#Cc2ccc([C@H]3[C@@H](CO)N4CCCCN(Cc5ccncc5)C[C@H]34)cc2)cc1
 : ? | /

Screens (PubChem)
